# High-throughput results as filed in PubChem BioAssay.
# gsp agonist: agonists of gsp mutant (McCune-Albright syndrome); gsp mutant cells, cAMP HTRF, 30 min; control for the full effect not named in the record; Potency, µM (highest dose often 76.9 µM), for the others: at the highest dose activation (cAMP increase), actives largely listed as activators; hit rate 0.13% among 340,000; AID 624287; active = well fitted activation curve with a large enough effect; inconclusive = small, poorly fitted or top-dose-only effect, or another doubt; inactive = no such curve, though single readings can be large or run the other way; cell line not stated here;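 also: phosphodiesterase inhibitor Ro 20-1724 added with compounds to block cAMP breakdown; potency is read from the fitted curve at half-maximal effect; nearly all actives have a fitted effect of over 60% in size; about a fifth of the inactives were tested at one dose only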
#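 Cells stably selected in G418 were plated at 2000/well, grown 16-24 hr, then given compounds in DMSO with the PDE inhibitor […] (300 uM solution added) for 30 min at 37C; cAMP was read by HTRF.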
# TRPV1 PAM: enhances activation of the human vanilloid receptor TRPV1 | TRPV1-expressing cells, Fluo-8 calcium influx, capsaicin EC20 potentiation; host cell line not named in the record; control for the full effect not named in the record | Q8NER1 | potentiation, % at 8.33 µM | hit rate 0.02% among 320,000; active means potentiation above 80%; inconclusive means 30% to 80%; inactive means below 30%; also: 0% is about no effect
# Target sequence (Q8NER1 whole entry, looked up): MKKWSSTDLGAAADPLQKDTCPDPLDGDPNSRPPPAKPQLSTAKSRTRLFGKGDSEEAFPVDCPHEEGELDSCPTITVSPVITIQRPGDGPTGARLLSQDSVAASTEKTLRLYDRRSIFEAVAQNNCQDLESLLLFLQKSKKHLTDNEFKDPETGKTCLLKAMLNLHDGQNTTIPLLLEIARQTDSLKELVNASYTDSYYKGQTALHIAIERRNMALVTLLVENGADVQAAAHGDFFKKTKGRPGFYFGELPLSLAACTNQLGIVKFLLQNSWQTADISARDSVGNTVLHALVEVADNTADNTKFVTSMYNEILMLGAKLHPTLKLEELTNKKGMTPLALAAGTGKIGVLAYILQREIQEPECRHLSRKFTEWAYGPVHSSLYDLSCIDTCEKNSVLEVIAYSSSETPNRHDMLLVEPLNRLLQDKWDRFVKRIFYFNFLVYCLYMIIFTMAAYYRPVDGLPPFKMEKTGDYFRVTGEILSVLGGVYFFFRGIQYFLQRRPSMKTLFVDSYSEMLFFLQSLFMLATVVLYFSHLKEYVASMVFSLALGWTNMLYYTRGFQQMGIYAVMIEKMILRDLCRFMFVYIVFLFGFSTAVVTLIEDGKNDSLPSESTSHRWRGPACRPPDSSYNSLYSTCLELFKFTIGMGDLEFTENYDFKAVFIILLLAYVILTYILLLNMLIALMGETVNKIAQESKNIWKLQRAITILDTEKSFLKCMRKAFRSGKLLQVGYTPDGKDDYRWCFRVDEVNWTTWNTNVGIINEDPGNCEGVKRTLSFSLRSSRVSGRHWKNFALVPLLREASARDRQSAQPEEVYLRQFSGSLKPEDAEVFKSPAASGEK
#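 TRPV1-expressing cells were cultured overnight at 35.5C and loaded with Fluo-8 calcium dye for 40 to 90 min at room temperature. After a 10 s baseline, compound was added and calcium influx was read kinetically for 3 min (ex 480/em 520 nm).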
# Sfp inh: Sfp phosphopantetheinyl transferase inhibition | hit rate 3.5% among 310,000 | Biochemical Sfp PPTase activity, qHTS | Potency, µM, inactives show max response, negative = inhibition, most hits filed as inhibitors | Q9F4F7; active = well fitted inhibition curve with a large enough effect; inconclusive = small, poorly fitted or top-dose-only effect, or another doubt; inactive = no such curve, though single readings can be large or run the other way;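 also: the enzyme is Sfp with the accession as filed and its product quenches rhodamine fluorescence; potency is read from the fitted curve at half-maximal effect; 0% = enzyme reaction without inhibitor and -100% = no enzyme wells; top concentration of the series not given in the record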
#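 Reaction rates are the 30-min fluorescence difference (ex 525, em 598 nm) in wells containing 15 nM Sfp, 5 uM rhodamine-CoA and 12.5 uM BHQ-2-YbbR at pH 7.6 with 10 mM MgCl2.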
# gsp antagonist: antagonists of gsp mutant (McCune-Albright syndrome); gsp-mutant cells, cAMP HTRF, 30 min; control for the full effect not named in the record; hit rate 0.4% among 340,000; Potency, µM (titrated, usually from 76.9 µM), inactives show at the highest dose activity change, negative = inhibition, most hits filed as inhibitors; AID 624288; active = falling curve of any shape with a large fitted effect; inconclusive = falling curve, mostly with a smaller effect; inactive = flat or rising curve; cell line not stated here;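 also: intracellular cAMP measured with PDE inhibitor Ro 20-1724 present during compound exposure; potency is read from the fitted curve at half-maximal effect; % is scaled to controls: 0 for no effect and ±100 for the full control effect; nearly all actives have a fitted effect of over 65% in size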
#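 HTRF cAMP measurement after 30 min RT detection following 30 min, 37C compound treatment alongside […] (added as 300 uM solution) in G418-selected cells seeded at 2000/well and grown 16–24 h.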
# ClpP mod: qHTS Assay for Activators of ClpP. ATP-dependent Clp protease proteolytic subunit (Bacillus subtilis (strain 168)), P80244. purified B. subtilis ClpP, FRET peptide cleavage, 20 min. Potency, µM (titrated, usually from 57.5 µM), for inactives: at the highest dose activity change, negative = active. hit rate 1.9% among 340,000; active = well fitted falling curve with a large enough effect; inconclusive = small, poorly fitted or top-dose-only effect; inactive = no such curve, though single readings can be large or run the other way; also: potency is read from the fitted curve at half-maximal effect; the source files actives as falling curves though it sought activators and does not explain the sign; nearly all actives have a fitted effect of over 65% in size; many hits overshoot -100%
# Target sequence (P80244 whole entry, looked up): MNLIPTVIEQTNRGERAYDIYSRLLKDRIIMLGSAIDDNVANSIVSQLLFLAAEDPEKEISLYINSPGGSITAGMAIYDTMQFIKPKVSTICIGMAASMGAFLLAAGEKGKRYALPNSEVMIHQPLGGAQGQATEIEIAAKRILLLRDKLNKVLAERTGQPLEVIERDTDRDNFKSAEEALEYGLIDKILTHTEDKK
#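 FRET quenching reversal measured ClpP activation: 10 microg/mL B. subtilis ClpP at pH 8 with the FRET-FV decapeptide, read at 430 nm after 320 nm excitation. The 20-min minus 0-min signal was scaled between DMSO/no-enzyme wells and ADEP (5.8 microM final).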
# Menin-MLL FL inh: displaces fluorescein MLL peptide from human menin | 290,000 tested, under 10 active | FP activity change, % at 61.4 µM | Fluorescence polarization, fluorescein-MLL peptide displacement from menin; inconclusive = falling polarisation curve, or a change in total fluorescence; inactive = total fluorescence flat and polarisation flat or rising; no compound was filed as active; the % refers to the polarisation; negative = inhibition;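 also: % of control where 0% means no effect; inhibitors lower the polarisation; unlabelled MLL peptide was the positive control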
# D2 PAM: potentiates the human D2 dopamine receptor allosterically; P14416; DiscoveRx D2 beta-arrestin cells, luminescence, 90 min; 100% = 57 uM dopamine signal; potentiation, % (test concentration not listed); hit rate 0.23% among 360,000; active = potentiation of 50% or more; inconclusive = 30% to 50%; inactive = 30% or less;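 also: compound concentration not given in the record; tested on top of an EC20 dose of dopamine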
#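 PathHunter beta-arrestin assay in DiscoveRx D2 cells. Compounds were added with an EC20 of dopamine (50 nM final) for 90 min at 37 deg C. Luminescence was read 1 h after detection reagent, with 57 uM dopamine as the EC100 control.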
# Numbers without * were called inactive; ? = inconclusive; nt = no result given; & = joins results of further samples; [ ] = dose if it differs, or a comment. Compounds were not picked by outcome; 5.1% or so of the library scored in one or more.
SMILES,gsp agonist,TRPV1 PAM,Sfp inh,gsp antagonist,ClpP mod,Menin-MLL FL inh,D2 PAM
CC(C)(C)c1ccc(/C=C/C(=O)NC2CCS(=O)(=O)C2)cc1 (stereo not given),-12%,28,-15%,0%,-1.0%,0.1,-2
Cc1c(NC(=O)COC(=O)c2cc3c4ccccc4n(C)c3s2)c(=O)n(-c2ccccc2)n1C,-35%[inhibitor],?,-54%,-13%,25µM*,0.7,4
CC(C)Cc1nnc(NC(=O)C2=COCCO2)s1,-45%[inhibitor],-12,nt,18%,1.1%,nt,-2
C[C@@H]1C(=O)O[C@@H]2[C@H](O)C34[C@H]5C[C@@H](C(C)(C)C)C36[C@H](OC(=O)[C@@H]6O)OC4(C(=O)O5)[C@@]12O (stereo not given in full),-1%,1,10%,-4%,-3.7%,0.0,-10
CCN(CC(=O)NCc1cccs1)CC(=O)Nc1ccccc1C,11%,2,nt,7%,1.4%,nt,2
CC(C)(C)OC(=O)N1CCC(c2c(C(=O)NCC3CCN(C4CCCC4)C3)cnn2-c2ccc(F)cc2)CC1 (stereo not given),24%,-4,15%,-15%,-1.0%,-1.7,-30
Cc1cc(-n2c(C)cc(C(=O)CN3C(=O)NC4(CCCC4)C3=O)c2C)no1,4%,-5,15%,-7%,1.3%,-3.0,-9
O=C(O)C1CCCCC1C(=O)NC1C2CC3CC(C2)CC1C3 (stereo not given),0%[15.4 µM],0,23%,16%,0.4%,0.8,-18
Cc1cccc(CS(=O)(=O)Cc2ccc(C(=O)NCCCN3CCCC3)o2)c1,37%,-1,-11%,-3%,0.1%,3.8,-10
C[C@@H]1COC(=O)[C@H](Cc2ccc(F)cc2)CC/C=C\C[C@@H](CC(=O)NCCO)C(=O)N1,4%,nt,nt,4%,-1.4%,nt,-2
O=C(N/N=C/c1ccccc1)c1n[nH]c2c1CCCC2,34%[15.4 µM],-19,16%,5%,nt,1.3,-7
CC(=NNC(=O)CSc1nc2ccccc2o1)c1ccco1,25%[15.4 µM],nt,nt,-13%,0.6%,nt,-5
COc1ccc(CCNc2nc(C)nc3c2nnn3Cc2ccccc2)cc1,-25%,17,-22%,4%,0.6%,-0.5,-4
O=C(NCCCn1ccnc1)c1cc(S(=O)(=O)N2CCOCC2)c(Cl)cc1Cl,-5%,-5,7%,4%,-1.3%,-0.3,5
N#Cc1ccccc1NC(=O)c1ccc2c(Cl)c3c(nc2c1)CCCC3,-4%,3,-22%,3%,-2.4%,-0.5,-2
CCCCc1nc2ccccc2c(=O)n1NC(=O)c1c(O)c2cccc3c2n(c1=O)CC3,-7%,22,12%,5%,?,2.1,0
CCC(=O)N1CCc2cc(Br)cc(S(=O)(=O)NCC3CCCN3CC)c21 (stereo not given),-2%,0,16%,1%,3.5%,0.7,-19
CN(c1ccc(OCC(=O)NCc2cccnc2)cc1)S(=O)(=O)c1ccc(Cl)cc1,-3%[15.4 µM],-4,15%,nt,nt,0.7,-6
CCOC(=O)c1c(S(=O)(=O)N2CCN(C)CC2)c(C)n(C)c1C,-8%,-10,15%,12%,1.1%,-1.9,4
COc1cc(CN(CC2CCCO2)C(=O)c2cccs2)cc(OC)c1OC (stereo not given),26%,-9,8%,-1%,0.2%,nt,-3
CCC(=O)Nc1ccc(S(=O)(=O)N2CCOCC2)cc1,-36%[inhibitor],3,-7%,0%,0.8%,1.2,-14
COc1cc(/C=N/NC(=O)c2c(-c3ccccc3)noc2C)ccc1O,16%,1,13%,2%,-11%,1.4,-3
O=C(CSc1cccc[n+]1[O-])N1CCCCCC1,-1%[15.4 µM],-7,1%,7%,-1.8%,-0.2,0
Nc1cccc(Cl)c1N1CCOCC1,-35%[inhibitor],8,15%,7%,0.3%,0.3,-5

# One compound at a time (already shown). Order of values: gsp agonist, TRPV1 PAM, Sfp inh, gsp antagonist, ClpP mod, Menin-MLL FL inh, D2 PAM
# `CCOC(=O)c1c(S(=O)(=O)N2CCN(C)CC2)c(C)n(C)c1C` across the screens: -8%, -10, 15%, 12%, 1.1%, -1.9, 4
# `CN(c1ccc(OCC(=O)NCc2cccnc2)cc1)S(=O)(=O)c1ccc(Cl)cc1` across the screens: -3%[15.4 µM], -4, 15%, nt, nt, 0.7, -6

# Following part:
SMILES,gsp agonist,TRPV1 PAM,Sfp inh,gsp antagonist,ClpP mod,Menin-MLL FL inh,D2 PAM
CCOC(=O)NC1CCc2cc(OC)c(OC)c(OC)c2-c2ccc(SC)c(=O)cc21 (stereo not given),0%,nt,nt,3%,-0.9%,nt,-7
COc1cc(NC(=O)C2CCC(=O)N2S(=O)(=O)c2ccc(C)cc2)cc(OC)c1 (stereo not given),2%,2,5%,0%,nt,1.4,-10
Cc1ccc(SCc2cc(=O)[nH]c(Nc3nc(C)c4ccccc4n3)n2)cc1,24%,5,-5%,4%,-10.0%,nt,-2
Cc1ccc(NC(=O)COC(=O)CN2C(=O)c3ccccc3C2=O)cc1S(=O)(=O)N(C)C,-9%[15.4 µM],-11,3%,-14%,nt,-1.7,-4
Cc1ccc(N(CC(=O)NCc2ccccc2Cl)S(=O)(=O)c2c(C)noc2C)cc1,?,-2,18%,-12%,nt,-2.7,-1
C[C@H]1CCC(=O)N([C@H](CC#N)Cc2ccccc2)CC1,nt,-14,17%,2%,-0.1%&1.4%,3.2,-32
Cc1ccc(Nc2nc(Cl)c(C=O)s2)cc1,23%,-6,13%,-20%,-2.2%,?,-15
Cc1ccc(S(=O)(=O)N2CCN(C(=O)Cn3nc(C)c([N+](=O)[O-])c3C)CC2)cc1,8%,-6,nt,1%,0.5%,nt,-2
O=C(NCc1cn2ccccc2n1)c1ccc2c(c1)OCO2,-25%,17,18%,17%,?,-2.0,-7
N#Cc1c2c(c(-n3cnc4ccccc43)n3c1nc1ccccc13)CCC2,-2%,4,5%,2%,0.8%,12,-1
Cc1ccc(SCC(=O)NC(=O)NCCC(C)C)c(C)c1,18%,-2,26%,2%,-0.7%,2.1,-1
Cc1cnc(C(=O)Oc2c(C)ccc(C)c2C)cn1,-21%,2,8%,3%,-1.7%,-0.4,-8
COc1cc(C=O)c(Br)cc1OCc1ccc(C)cc1,-53%[inhibitor],-13,-14%,-6%,-2.1%,0.8,-7
C[C@@H]1CN([C@H](C)CO)C(=O)CCCn2cc(nn2)CO[C@H]1CN(C)C(=O)OCc1ccccc1,-65%[inhibitor],nt,nt,nt,-4.0%,nt,-6
Cc1ccc(-c2cc(-c3ccccc3)nc(N(C)N)n2)cc1,-5%,12,-13%,-8%,-2.3%,5.0,-21
Cc1nc2c(C)cccc2c2c1CCS2,5%[15.4 µM],1,9%,-4%,nt,0.9,-1
O=[N+]([O-])c1cc(CSC2=NCCN2)ccc1O,5%,-3,-19%,-1%,-3.1%,1.7,-10
O=C1NC(=S)NC1=Cc1ccc(O)cc1,0%,nt,nt,-10%,nt,nt,-17
COc1cc(OC)c(OC)cc1C=NCC1(c2ccccc2)CCCC1,-17%,13,-6%,-6%,-3.8%,-1.9,9
O=C(NCc1ccco1)C(c1ccccc1)N(Cc1cccnc1)C(=O)Cn1nnc2ccccc21 (stereo not given),18%,5,-3%,-1%,0.2%,1.5,-17
COc1ccc(C(=O)NNC(=O)c2ccc(S(=O)(=O)N3CCOCC3)cc2)cc1,5%,0,9%,-13%,nt,-1.2,-5
C(=N\Nc1nncc2ccccc12)/c1ccccn1,-4%,1,10%,0%,nt,13,-4
CCCCCC(=O)N(Cc1ccccc1)c1c(N)n(CCOC)c(=O)[nH]c1=O,-27%,nt,nt,-2%,-1.6%,nt,6
CN1CCN(S(=O)(=O)c2ccc(N(C)CC(=O)Nc3ccc(F)cc3)nc2)CC1,nt,24,-1%,nt,nt,-0.8,nt
O=C(CCn1cccn1)N1CCCC(N2CCN(c3cccc(C(F)(F)F)c3)CC2)C1 (stereo not given),3%,-10,19%,5%,-1.0%,2.0,-12
COc1ccc(OC(C)C(=O)Nc2cccnc2)cc1 (stereo not given),-8%,11,11%,4%,-0.1%,2.2,-14
COc1ccc(Cc2nc3ccc(C(=O)NCCc4ccccn4)cc3o2)cc1OC,-2%,7,-6%,-10%,0.3%,-2.4,3
Cc1cccc(C(=O)N(CCc2ccccc2)Cc2ccccc2)c1[N+](=O)[O-],-34%,-1,12%,?,0.1%,nt,-4
CC1CCN(C(=O)CN2C(=O)C(C)(C)Oc3ccc(C(=O)NC4CCCC4)cc32)CC1,11%,12,14%,2%,0.6%,2.7,-11
Cc1noc(C)c1S(=O)(=O)Nc1ccccc1N1CCOCC1,1%[15.4 µM],10,11%,10%,-1.7%,-0.8,-1
Cc1ccc(NC(=O)CCC(=O)NNC(=O)C(c2ccccc2)c2ccccc2)c(C)c1,-38%[inhibitor],8,18%,3%,-0.4%,2.3,-11
O=C(CNC(=O)c1ccccc1)OC(C(=O)c1ccccc1)c1ccccc1 (stereo not given),?,-26,-1%,-13%,0.0%,2.8,-1
Cc1nc2nc(SCC(=O)O)nn2c(C)c1Cc1ccccc1Cl,-24%,-2,-28%,-3%,-6.8%,-3.8,-4
O=C(NCc1ccccc1Cl)C1CCN(c2ncnc3c2nc2n3CCCCC2)CC1,?,-1,?,-2%,-0.8%&-2.4%,nt,-11
CCOC(=O)C1=C(COC(=O)CNS(=O)(=O)c2c(F)cc(F)cc2Br)NC(=O)NC1C (stereo not given),?,nt,nt,10%,1.8%,nt,0
Cc1ccc(NC(=O)C(C)N2C(=O)c3ccccc3C2=O)nc1 (stereo not given),-15%,7,14%,5%,nt,-5.1,-1
CCCN(C(=O)COC(=O)CNC(=O)c1ccc2ccccc2c1)c1c(N)n(Cc2ccccc2)c(=O)[nH]c1=O,-2%[15.4 µM],-16,nt,-5%,nt,nt,-1
Cc1cccc(NC(=S)NCCC(C)C)c1,12%[15.4 µM],8,11%,5%,-3.9%,3.3,-5
O=S(=O)(c1ccc(Cl)cc1)n1c(Cc2ccccc2)nc2ccccc21,28%,-8,15%,5%,-0.5%,6.2,-17
COC(=O)/C(=C\C(=O)c1ccccc1)Nc1cccc(C(F)(F)F)c1,-11%,-6,-36%,-12%,4.6%,1.2,3
CNc1c([N+](=O)[O-])cnn1-c1ccc(Cl)cc1Cl,29%,-8,2%,13%,1.3%,0.2,-12
